# CtBP-E1A blk = qHTS Assay for Inhibitors of the CtBP/E1A Interaction; CtBP / adenovirus E1A interaction (AlphaScreen); AlphaScreen GST-E1A/His-CtBP binding, 1536-well; hits give low values; control for the full effect not named in the record; activity change, % (no concentration beside the values); actives 0.49% (n = 340,000); AID 651724, 2012; in the data active means activity change below about -65%; inconclusive means about -30% to -65%; inactive means above about -30%; note: % is set by controls: 0 for no effect and ±100 for the full control effect; compound concentration not given in the record
#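 Homogeneous bead-based format: GST-tagged E1A captured on glutathione donor beads, His-tagged CtBP on nickel acceptor beads; compounds precede bead addition by 2 h at 37 °C.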
# Six1-Eya2 inh = qHTS Assay for Inhibitors of the Six1/Eya2 Interaction; Homeobox protein SIX1 (Homo sapiens) + Protein phosphatase EYA2 (Homo sapiens), …; AlphaScreen GST-Six1/His-Eya2 binding, biochemical; hits give low values; control for the full effect not named in the record; activity change, % (no concentration beside the values); actives 0.56% (n = 360,000); AID 651725, 2012; in the data active = activity change below about -65%; inconclusive = about -30% to -65%; inactive = above about -30%; note: % is set by controls: 0 for no effect and ±100 for the full control effect; compound concentration not given in the record
# Target sequence (O00167 whole entry, looked up): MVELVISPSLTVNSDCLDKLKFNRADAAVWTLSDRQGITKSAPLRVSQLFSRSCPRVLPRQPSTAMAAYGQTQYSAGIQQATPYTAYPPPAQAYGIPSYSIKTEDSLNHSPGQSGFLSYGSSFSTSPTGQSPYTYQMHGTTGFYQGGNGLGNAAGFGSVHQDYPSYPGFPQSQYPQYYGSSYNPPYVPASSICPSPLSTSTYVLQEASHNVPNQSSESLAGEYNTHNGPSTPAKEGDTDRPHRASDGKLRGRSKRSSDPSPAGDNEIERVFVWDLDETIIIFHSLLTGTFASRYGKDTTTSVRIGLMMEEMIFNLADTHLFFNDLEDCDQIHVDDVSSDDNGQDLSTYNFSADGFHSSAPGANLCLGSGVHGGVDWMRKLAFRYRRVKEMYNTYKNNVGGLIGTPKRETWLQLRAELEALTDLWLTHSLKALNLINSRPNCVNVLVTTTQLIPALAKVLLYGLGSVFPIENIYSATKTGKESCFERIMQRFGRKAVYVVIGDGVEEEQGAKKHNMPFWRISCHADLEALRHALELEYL
# Target sequence (Q15475 whole entry, looked up): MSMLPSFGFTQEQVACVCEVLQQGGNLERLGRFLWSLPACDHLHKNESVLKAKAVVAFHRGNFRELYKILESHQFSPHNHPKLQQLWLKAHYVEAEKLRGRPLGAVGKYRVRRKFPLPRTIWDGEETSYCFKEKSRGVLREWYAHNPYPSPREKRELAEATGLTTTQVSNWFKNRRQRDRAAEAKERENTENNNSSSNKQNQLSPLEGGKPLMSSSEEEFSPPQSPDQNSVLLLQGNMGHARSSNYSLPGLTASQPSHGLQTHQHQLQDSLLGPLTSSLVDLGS
#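 AlphaScreen luminescence read after one hour at 37 °C in darkness. Pin-transferred compounds met GST-Six1 and His-Eya2 protein (5X stock 250 nM/500 nM) plus glutathione donor and Ni-chelate acceptor beads (5X, 50 ug/mL).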
# TRPML1 ag = qHTS for Agonists of the Human Mucolipin Transient Receptor Potential 1 (TRPML1) | Mucolipin-1 (Homo sapiens), Q9GZU1 | TRPML1-expressing cells, Ca2+ dye fluorescence, FDSS; host cell line not named in the record; reference of the full effect not given here | activation, % (no concentration beside the values) | actives 0.12% (n = 410,000) | AID 624414, 2012; in the data active = activation above about 50%; inconclusive = about 30% to 50%; inactive = below about 30%; note: 0% is about no effect; the text of the record puts the active cut at 80%
#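 TRPML1-DL cells, Tet-induced overnight (~16 h, 37 degrees C), loaded 45-90 min at room temperature with Ca8 no-wash calcium dye plus quencher. FDSS fluorescence: 10 s baseline, compound pin-transfer, 110 s agonist read, then EC80 54-4 (4uM final) and 110 s antagonist read.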
# TRPV1 potentiator = HTS Assay for Compounds that Act as Potentiators of the Vanilloid Receptor 1 | Transient receptor potential cation channel subfamily V member 1 (Homo sapiens), Q8NER1 | potentiation, % at 8.33 µM | AID 540277, 2011 | TRPV1-expressing cells, Fluo-8 calcium influx, capsaicin EC20 potentiation; host cell line not named in the record; control for the full effect not named in the record | actives 0.02% (n = 320,000); active means potentiation above 80%; inconclusive means 30% to 80%; inactive means below 30%; note: 0% is about no effect
#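 Fluo-8 calcium influx in TRPV1-expressing cells, kinetic read (ex 480/em 520 nm). Compound added and read 3 min for agonist activity, followed by capsaicin at EC20 final and 2 min further read for enhancement.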
# TRPML1 blocker = qHTS for Inhibitors of the Human Mucolipin Transient Receptor Potential 1 (TRPML1) | TRPML1-inducible cells, Ca2+ dye fluorescence, FDSS; hits give low values; inhibition of EC80 agonist-evoked calcium signal | activity change, negative = inhibition, % (concentration not given with the values) | actives 0.02% (n = 390,000) | AID 624415, 2012; in the data active means activity change below about -50%; inconclusive means about -30% to -50%; inactive means above about -30%;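 note: stimulus is agonist 54-4 at its EC80 concentration; % is set by controls: 0 for no effect and ±100 for the full control effect; compound concentration not given in the record; the text of the record puts the active cut at -80%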
#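 Tet-induced TRPML1-DL cells loaded with Ca8 no-wash calcium dye were read kinetically on FDSS. Compound addition was followed by EC80 agonist 54-4 (4 uM final); inhibition was read over 110 s.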
# D2 PAM = Beta-Arrestin HTS for Positive Allosteric Modulators of the Human D2 Dopamine Receptor: Potentiators; D(2) dopamine receptor (Homo sapiens), P14416; DiscoveRx D2 beta-arrestin cells, luminescence, 90 min; 100% = 57 uM dopamine signal; potentiation, % (concentration not given with the values); actives 0.23% (n = 360,000); AID 624464, 2012; active = potentiation of 50% or more; inconclusive = 30% to 50%; inactive = 30% or less;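 note: compound concentration not given in the record; tested on top of an EC20 dose of dopamine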
#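 D2 cells co-treated with compound plus 50 nM dopamine (EC20) for 90 min at 37 deg C to detect potentiation. Beta-arrestin recruitment was read as enzyme-fragment luminescence after 1 h at ambient temperature. Full response was set by 57 uM dopamine.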
# Numbers without * were called inactive; ? = inconclusive; · = no result given. The order is random; about 0.95% have a hit in one of these screens.
SMILES,CtBP-E1A blk,Six1-Eya2 inh,TRPML1 ag,TRPV1 potentiator,TRPML1 blocker,D2 PAM
CN(c1ccccc1)S(=O)(=O)c1cccc(C(=O)NNC(=O)c2ccncc2)c1,-2.5,-1.2,-0.8,5.7,4.3,-5.9
Cc1cc(C)n(CC(=O)c2cccc(N)c2)n1,6.4,7.5,0.4,19.5,23.0,0.1
CCOC(=O)c1c(C)[nH]c(C)c1S(=O)(=O)NCc1cc(C)ccc1C,-5.4,-10.8,-1.1,-8.5,6.5,-2.2
COc1ccc(NC(=O)CCCn2nc(C)c3c(C)n(-c4ccccc4)nc3c2=O)cc1,-2.1,-1.2,1.3,0.5,21.2,-8.6
CCOC(=O)c1c(NC(=O)c2ccc(C)cc2)sc2c1CC(C)(C)OC2,8.7,-2.5,1.5,2.5,-1.9,-5.2
COc1ccc(N(C(C)=O)S(=O)(=O)c2cc(OC)ccc2OC)cc1,6.3,-0.9,0.1,-0.2,2.0,2.6
CC(C)(C)NC(=O)C1c2ccccc2OCC(=O)N1CC(F)(F)F (centres undefined),-3.2,10.7,-0.3,·,·,·
Cc1cc2nccc(-c3cccnc3)n2n1,-6.9,6.8,0.2,12.4,18.5,2.4
Cc1sc2nc(CN3CCCC3)nc(N3CCN(C(=O)c4ccco4)CC3)c2c1C,1.4,-9.6,0.5,10.6,29.1,-6.8
COc1ccc(-c2[nH]ncc2CN2CCSCC2)c(OC)c1,1.0,-4.4,-0.3,4.9,8.0,-8.6
O=Cc1cn(CC(O)CN2CCCCC2)c2ccccc12 (centres undefined),·,0.2,0.9,0.1,-13.1,-12.8
COCc1nnc(NC(=O)C(C)C)s1,7.1,6.4,-0.5,1.0,-3.9,0.1
O=C(CCc1ccc(S(=O)(=O)N2CCOCC2)cc1)OCC(=O)c1ccc(Br)cc1,14.1,3.2,0.6,·,7.4,-2.6
O=c1c2nnn(-c3cccc(F)c3)c2ncn1Cc1ccccn1,4.7,-4.9,-0.2,-32.4,21.9,1.6
Cc1ccc(C(=O)N2CCN(S(=O)(=O)c3ccccc3[N+](=O)[O-])C2)cc1,-0.5,-1.2,0.7,23.0,25.0,-3.0
CC1C(=O)N(Cc2cn(CCC3OCCCO3)nn2)CCS(=O)(=O)N1Cc1ccc(-c2cccc(CO)c2)cc1 (centres undefined),-2.8,-1.2,-0.4,·,10.2,0.7
CCC(C)(C)n1nnnc1C(c1ccccn1)N1CCOCC1 (centres undefined),7.1,8.9,0.8,-0.7,2.7,-15.6
CC(c1ccon1)N(C)Cc1cn(C)nc1-c1cccc(Cl)c1 (centres undefined),-5.5,0.5,0.7,-7.3,-7.6,-1.0
COc1ccc2sc(N(CCN(C)C)C(=O)/C=C/c3cccs3)nc2c1,8.4,-0.4,-0.7,-2.9,41.5,-16.6
CCOC(=O)C(=CNNc1ccccc1)C(=O)OCC,0.0,5.1,0.6,-5.4,4.7,-2.2
S=c1[nH]nc(Cc2noc3ccccc23)n1-c1ccc(Cl)cc1,-0.2,6.3,0.5,0.9,44.3,-12.3
C=CCOc1ccc2cccc(/C=N/NC(=O)c3cc4cc([N+](=O)[O-])ccc4s3)c2c1,-5.4,-1.0,0.0,-18.8,33.7,10.8
COC(=O)CCc1c(C)c(C(=O)c2cccc(OC)c2OC)c2ccccn12,-4.0,-3.7,-0.7,12.2,11.4,-2.4
CCCCNC(=S)NNC(=O)c1csc(C)c1,13.1,20.0,-0.2,10.5,-24.0,-13.1
COC(=O)c1ccccc1NC(=S)NC(C)=O,10.2,-0.5,-0.3,5.2,4.1,-6.3
O=S(=O)(NCCc1cn2ccccc2n1)c1ccc2c(c1)OCCO2,0.9,3.8,0.3,18.2,26.0,-8.0
Cc1nn(C)cc1CNCc1ccc(OCC(O)CN(C)Cc2ccccc2)cc1 (centres undefined),·,-2.3,-0.2,0.2,9.4,-9.7
Cc1ccc(S(=O)(=O)NC(C)C(=O)Nc2ccccc2C(=O)N2CCCC2)cc1 (centres undefined),-15.3,-8.0,-0.2,-3.9,4.8,-2.9
Cc1ccc(CNC(=O)/C=C/c2ccccc2Cl)cc1,0.7,-0.9,-0.4,-10.9,6.1,0.5
O=C1Cc2cc(NS(=O)(=O)c3cc(F)ccc3F)cc3c2N1CCC3,4.0,-4.4,-0.7,10.3,2.4,-6.6

# One compound at a time (already shown). Screens in order: CtBP-E1A blk | Six1-Eya2 inh | TRPML1 ag | TRPV1 potentiator | TRPML1 blocker | D2 PAM
# Results for S=c1[nH]nc(Cc2noc3ccccc23)n1-c1ccc(Cl)cc1 = -0.2 | 6.3 | 0.5 | 0.9 | 44.3 | -12.3
# Results for Cc1ccc(S(=O)(=O)NC(C)C(=O)Nc2ccccc2C(=O)N2CCCC2)cc1 (centres undefined) = -15.3 | -8.0 | -0.2 | -3.9 | 4.8 | -2.9
# Results for Cc1ccc(CNC(=O)/C=C/c2ccccc2Cl)cc1 = 0.7 | -0.9 | -0.4 | -10.9 | 6.1 | 0.5
# Results for CCCCNC(=S)NNC(=O)c1csc(C)c1 = 13.1 | 20.0 | -0.2 | 10.5 | -24.0 | -13.1
# Results for O=Cc1cn(CC(O)CN2CCCCC2)c2ccccc12 (centres undefined) = · | 0.2 | 0.9 | 0.1 | -13.1 | -12.8

# (cont.)
SMILES,CtBP-E1A blk,Six1-Eya2 inh,TRPML1 ag,TRPV1 potentiator,TRPML1 blocker,D2 PAM
COCc1nnc(NC(=O)c2ccc(S(=O)(=O)N3CCOCC3)cc2)o1,-18.5,?,-0.1,9.6,-5.2,-6.6
O=C1NC2=C(C(=O)CCC2)C(c2ccc3ncccc3c2)N1 (centres undefined),3.1,5.8,0.4,-27.1,1.5,-12.0
Cc1ccccc1-c1ccc(CN2C(C(C)C)C(=O)N(Cc3cn(CCC4OCCO4)nn3)CCS2(=O)=O)cc1 (centres undefined),0.1,-4.1,-0.6,·,·,-8.8
CCC(NS(=O)(=O)c1ccc(OC)cc1)C(=O)NCCC1=CCCCC1 (centres undefined),9.5,4.4,0.4,-8.2,27.9,4.9
CCC1=C(OC(=O)N(CC)CC)N2C(=O)OC(=NCC(=O)OC)[C@]2(C)[C@H]2C1=CC[C@H]1C(=O)NC(=O)[C@H]12,-1.4,-1.7,-0.6,18.4,-1.3,-14.9
Cc1ccc(OC(C)C(=O)N2CCCc3ccccc32)cc1 (centres undefined),7.9,6.5,0.6,-9.7,5.6,-10.3
Cc1ccc(C)c(N2CCN(C(=O)c3ccc(CS(=O)(=O)c4ccccc4C)o3)CC2)c1,-11.5,-12.3,1.8,5.6,12.7,-0.7
Cc1ccc(NC(=O)NCc2ccncc2)cc1Cl,-14.7,-16.7,-0.3,-3.3,28.7,-15.3
COc1cc(NC(=O)c2ccc(OCc3c(C)noc3C)c(OC)c2)cc(OC)c1,-22.7,-16.8,1.0,·,-4.4,1.1
Cc1ccc(OCc2ccc(C(=O)NCc3cccnc3)cc2)cc1C,9.6,0.0,3.1,-9.3,7.7,-6.9
O=C(Cc1ccc(F)cc1)N[C@@H]1c2ccccc2CC[C@@H]1OCc1ccccc1,-2.2,0.4,0.4,·,-9.0,-7.2
O=C(NCc1ccco1)c1cc(S(=O)(=O)N2CCCc3ccccc32)ccc1Cl,-2.7,-5.0,-0.5,2.0,3.6,-3.7
CC1=NNC(=O)C1CCC(=O)N/N=C/c1ccco1 (centres undefined),1.8,0.2,-0.4,0.1,-10.8,-2.3
Cc1oncc1-c1csc(-c2ccccc2)n1,·,6.1,0.9,-12.9,3.1,-6.6
C#CCOCCOCCOCCNc1nc(N2CCN(C(=O)Cn3cc(CC(C)O)nn3)CC2)nc(N2CCN(C(=O)[C@H](CCCCN)n3cc(CC(C)O)nn3)CC2)n1 (some centres undefined),0.4,-1.5,3.2,·,-0.3,-2.6
NC(=O)NC(=O)COC(=O)c1ccc(Cl)c(S(=O)(=O)N(Cc2ccccc2)c2ccc(Cl)cc2)c1,-19.7,0.8,0.6,-2.6,-16.2,3.9
CCOC(=O)C1=C(C)NC2=C(C(=O)c3ccccc32)C1c1ccc([N+](=O)[O-])o1 (centres undefined),-21.3,?,2.5,·,-7.2,-13.0
O=C1NC[C@@H](CCCCN2CCN(CCc3ccccc3)C(=O)C2=O)N(Cc2ccccc2)C1=O,2.7,3.3,-0.3,·,·,·
CNc1ccccc1C(=O)OCC(=O)N(CCOC)c1c(N)n(CC(C)C)c(=O)[nH]c1=O,8.5,-3.4,-0.9,-2.4,24.4,-2.0
N#C/C(=C\c1ccco1)C(=O)Nc1ccc(S(N)(=O)=O)cc1,·,0.9,0.0,-2.1,-11.8,9.9
COc1ccc(S(=O)(=O)N2CCN(CC(=O)NC3CC3)CC2)cc1,5.4,1.4,-0.1,0.7,23.9,-3.6
O=C(Nc1nc2ccccc2c(=O)[nH]1)c1ccccc1SCc1ccccc1,1.1,-1.8,1.5,0.3,14.4,0.0
CCC(C(=O)NCCCN1CCN(CCCNC(=O)C(CC)c2ccccc2)CC1)c1ccccc1 (centres undefined),-4.3,3.9,0.2,-21.9,19.3,-18.8
O=C1NC(c2ccccc2)=NC1(Nc1ccccn1)C(F)(F)F (centres undefined),12.9,10.5,0.2,-5.4,-7.7,-9.4

# Arranged by value in D2 PAM (smallest number first): some entries from above.
SMILES,D2 PAM
O=S(=O)(NCCc1cn2ccccc2n1)c1ccc2c(c1)OCCO2,-8.0
Cc1oncc1-c1csc(-c2ccccc2)n1,-6.6
CNc1ccccc1C(=O)OCC(=O)N(CCOC)c1c(N)n(CC(C)C)c(=O)[nH]c1=O,-2.0

# Source: PubChem BioAssay (National Center for Advancing Translational Sciences (NCATS))
